# Rango-impB inh: inhibitors of Rango-importin beta complex formation; 340,000 tested, 0.031% active; Q14974; Potency, µM (titrated, usually from 92.2 µM), inactives show at the top dose inhibition of complex formation; Rango CFP/YFP FRET sensor + importin beta, 45 min; active = rising FRET ratio curve, often small or poorly fitted; inconclusive = mostly compound fluorescence or quenching in the first reads; inactive = flat curves in all reads;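 further: potency means the concentration at half of the fitted maximal effect; 0% = DMSO wells and 100% = buffer wells lacking importin beta; nearly all actives have a fitted effect of over 15% in size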
#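 FRET biosensor (snurportin 1 IBB flanked by EYFP and cerulean), 50 nM, with compound 5 min, then 0.125 microM importin beta in PBS, 1 mM DTT, 0.02% Tween-20, 0.1% BSA. CFP/YFP ratio read after 45 min at room temperature; pre-read flags interference.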
# miR-21 FLuc: raises the signal of a miR-21 reporter. HeLa miR-21 FLuc reporter, luciferase, 48 h. Potency, µM (series often up to 38.3 µM), inactives show at the highest dose reporter change, positive = more light. 340,000 tested, under 10 active; active = well fitted rising curve with a large enough effect; inconclusive = small, poorly fitted or top-dose-only effect; inactive = no such curve, though single readings can be large or run the other way;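 further: % of control where 0% means no effect; miR-21 action dims this reporter so a rising signal means less miR-21 action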
#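 HeLa miR-21-FLuc reporter line, endogenous miR-21; 2000 cells/well in DMEM/10% FBS; compound titration up to ~40uM final, 48 h, 37 degree Celsius; luciferase detection reagent, 15 min lysis, CCD luminescence.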
# Rango release inh: prevents RanGTP from dissociating the Rango-importin beta complex. Biochemical FRET Rango-importin beta, RanGTP-induced dissociation. 340,000 tested, 0.071% active. AID 540253. Potency, µM (titrated, usually from 46.1 µM), inactives show at the top dose activity change, negative = inhibition; active means falling FRET ratio curve, often poorly fitted, with flat reads before Ran was added; inconclusive means other falling curves, or compound fluorescence or quenching; inactive means flat or rising ratio curve;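 further: potency means the concentration at half of the fitted maximal effect; % of control where 0% means no effect; nearly all actives have a fitted effect of over 45% in size; -100% = wells without RanGTP and RCC1; the record marks most hits as doubtful in a second field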
#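 FRET read at 45 min, room temperature: inhibitors block the CFP/YFP signal rise when RanGTP (0.6 uM Ran, 2 mM GTP, 0.2 uM RCC1) frees Rango (0.1 uM) from importin beta (0.25 uM). Pre-read after 5 min compound exposure flags interference.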
# GLA inh pH 4.5: blocks human alpha-galactosidase A at pH 4.5. 230,000 tested, under 10 active. activity change, negative = inhibition, % at 105 µM. P06280. purified enzyme, 4-MU-alpha-Gal fluorescence, pH 4.5. AID 1467; inconclusive = small, poorly fitted or top-dose-only inhibition, or a rising curve; inactive = flat fitted curve, though single readings scatter; no compound was filed as active;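 further: 0% = full activity with enzyme and -100% = basal without enzyme; dose as in the result columns while the protocol names 77 µM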
# Target sequence (P06280 whole entry, looked up): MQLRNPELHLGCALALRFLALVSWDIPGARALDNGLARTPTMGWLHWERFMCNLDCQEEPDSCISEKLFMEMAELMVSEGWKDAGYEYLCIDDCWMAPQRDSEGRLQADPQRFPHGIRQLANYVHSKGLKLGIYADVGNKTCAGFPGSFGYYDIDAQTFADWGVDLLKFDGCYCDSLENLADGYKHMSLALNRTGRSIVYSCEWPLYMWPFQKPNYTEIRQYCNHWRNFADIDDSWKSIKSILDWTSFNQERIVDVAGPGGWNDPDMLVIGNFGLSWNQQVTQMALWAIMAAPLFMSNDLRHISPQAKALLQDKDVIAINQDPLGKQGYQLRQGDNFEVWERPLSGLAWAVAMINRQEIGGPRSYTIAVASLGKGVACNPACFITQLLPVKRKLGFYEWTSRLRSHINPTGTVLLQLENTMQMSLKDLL
# * marks the source's active call; other numbers are inactive results; ? = inconclusive; / = not tested or not shown; & = joins results of further samples.
# Short forms: A = Rango-impB inh; B = miR-21 FLuc; C = Rango release inh; D = GLA inh pH 4.5
CC1=CC(=O)C2=C(C)CC(O)C3C(C)C(=O)OC3C12 (configuration not stated)
  A: -4.1%	B: 1%	C: 24%	D: 11

O=C(c1cn(Cc2ccccc2F)c2ncccc12)C(F)(F)F
  A: -2.3%	B: -11%	C: -2%	D: /

Cc1nn(Cc2ccccc2Cl)c(Cl)c1C(=O)OCC(=O)NC(=O)NC1CCCCC1
  A: -3.2%	B: -4%	C: -9%	D: -2

CC(C)=CCc1c(O)cc2c(c1O)C(=O)CC(c1ccc(O)cc1)O2 (configuration not stated)
  A: 0.0%	B: -10%	C: -9%	D: 2

O=C(c1cc(C(=O)NCc2ccccc2)c(=O)n(Cc2ccccc2)c1)c1cc(Br)ccc1O
  A: 0.4%	B: -7%	C: -6%	D: 12

Cc1cccnc1-n1c(CN2C(=O)c3ccccc3C2=O)nc2ccccc2c1=O
  A: -8.1%	B: 0%	C: 11%	D: 7

COC(=O)C1=C(c2cccc(OCc3ccccc3)c2)C[C@@H]2CC[C@H]1N2C(=O)NCCc1ccc(F)cc1
  A: 2.4%	B: /	C: -23%	D: /

C=CCn1cc(C=C2C(=O)N(C)C(=O)N(C)C2=O)c2ccccc21
  A: -3.3%	B: 2%	C: -12%	D: /

COC(=O)C1=C(c2ccc(F)cc2OCc2ccccc2)C[C@@H]2CC[C@H]1N2C(=O)NCc1cc(C)oc1C(F)(F)F
  A: -4.2%	B: /	C: -3%	D: /

O=c1c2ccccc2nc(/C=C\c2ccccc2[N+](=O)[O-])n1-c1ccccc1O
  A: 0.8%	B: 18%	C: 0%	D: -2

CC[N+]12CCC(CC1)C(=C(c1ccccc1)c1ccccc1)C2
  A: ?	B: 1%	C: -9%	D: 6

CC1CN(c2ccc([N+](=O)[O-])cc2Cl)CCN1 (configuration not stated)
  A: -2.4%	B: 0%	C: -2%	D: -7

CN(C)CC(C(=O)Cc1ccccc1)c1ccccc1 (configuration not stated)
  A: -0.5%	B: /	C: -3%	D: /

O=C1C2CCCN2C(c2cccnc2)N1c1cccc(Cl)c1 (configuration not stated)
  A: -2.2%	B: -10%	C: -6%	D: -9

CC(Cc1ccccc1)NC(=O)C(c1ccc(N)cc1)c1ccc(N)cc1 (configuration not stated)
  A: 0.1%	B: -1%	C: 5%	D: /

NC(=S)N/N=C/c1coc2ccccc2c1=O
  A: -0.1%	B: 10%	C: -8%	D: -2

NC(Cc1ccccc1)c1nc(-c2ccccc2)no1 (configuration not stated)
  A: 0.3%	B: -56%	C: 2%	D: -3

CC1=C(C)CC2(C(=O)NC(=O)NC2=O)C(C)C1 (configuration not stated)
  A: -2.4%	B: /	C: 6%	D: /

CN(C)C(=O)Oc1ccc(OC(=O)N(C)C)cc1
  A: 0.0%	B: -11%	C: 2%	D: 2

CSc1nc(N)c(N=Nc2ccc([As](=O)(O)O)cc2)c(=O)[nH]1
  A: -0.4%	B: 3%	C: -5%	D: -18

Cc1ccc(S(=O)(=O)CC(=O)c2cc(C)c(OC(=O)N(C)C)c(C)c2)cc1
  A: -6.0%	B: -15%	C: 1%	D: 4

CC(C)Cc1nc(N2CCNCC2)c(C#N)c2c1CCC2
  A: 2.0%	B: -8%	C: 0%	D: -2

COc1cccc(OC)c1C1=NCC(=O)Nc2c1oc1ccc(Br)cc21
  A: 1.2%	B: 18%	C: -20%	D: 0

CCCCn1c(O)c(C(CC)=Nc2ccc(OCC)cc2)c(=O)[nH]c1=O
  A: 6.5%	B: -5%	C: -1%	D: -4

COC(=O)C1=C(c2cccc(OCc3ccccc3)c2)C[C@@H]2CC[C@H]1N2C(=O)NCc1cccc(F)c1
  A: -0.7%	B: /	C: 1%	D: /

# Quoted at random: 2 compounds from above
# Short forms: A = Rango-impB inh; B = miR-21 FLuc; C = Rango release inh; D = GLA inh pH 4.5
COC(=O)C1=C(c2cccc(OCc3ccccc3)c2)C[C@@H]2CC[C@H]1N2C(=O)NCc1cccc(F)c1
  A: -0.7%	B: /	C: 1%	D: /

CN(C)CC(C(=O)Cc1ccccc1)c1ccccc1 (configuration not stated)
  A: -0.5%	B: /	C: -3%	D: /

# Shown with two lines to a compound: seven of the compounds above
# Every second line gives: Rango-impB inh | miR-21 FLuc | Rango release inh | GLA inh pH 4.5
> Cc1nn(Cc2ccccc2Cl)c(Cl)c1C(=O)OCC(=O)NC(=O)NC1CCCCC1
→ -3.2% | -4% | -9% | -2
> CC(C)=CCc1c(O)cc2c(c1O)C(=O)CC(c1ccc(O)cc1)O2 (configuration not stated)
→ 0.0% | -10% | -9% | 2
> O=C(c1cc(C(=O)NCc2ccccc2)c(=O)n(Cc2ccccc2)c1)c1cc(Br)ccc1O
→ 0.4% | -7% | -6% | 12
> Cc1cccnc1-n1c(CN2C(=O)c3ccccc3C2=O)nc2ccccc2c1=O
→ -8.1% | 0% | 11% | 7
> COC(=O)C1=C(c2cccc(OCc3ccccc3)c2)C[C@@H]2CC[C@H]1N2C(=O)NCCc1ccc(F)cc1
→ 2.4% | / | -23% | /
> C=CCn1cc(C=C2C(=O)N(C)C(=O)N(C)C2=O)c2ccccc21
→ -3.3% | 2% | -12% | /
> COC(=O)C1=C(c2ccc(F)cc2OCc2ccccc2)C[C@@H]2CC[C@H]1N2C(=O)NCc1cc(C)oc1C(F)(F)F
→ -4.2% | / | -3% | /

# (cont.)
# Short forms: A = Rango-impB inh; B = miR-21 FLuc; C = Rango release inh; D = GLA inh pH 4.5
O=C1CC(=O)N(c2cccc(F)c2)C(=O)N1
  A: 0.1%	B: 0%	C: 2%	D: /

CN1CC(C(=O)c2ccc(F)cc2)C(c2ccc(F)cc2)C1 (configuration not stated)
  A: -0.2%	B: 2%	C: 2%	D: /

CCOP(=O)(C#CC(C)(C)C)C(O)(c1ccccc1)C(F)(F)F (configuration not stated)
  A: -0.1%	B: 1%	C: 1%	D: 0

CCCCn1nc(C)c(C(=O)O)c1Cl
  A: -2.6%	B: 2%	C: 0%	D: 10

CN1CCN(S(=O)(=O)c2ccc(Cl)nc2)CC1
  A: -3.1%	B: -2%	C: 0%	D: 7

CC1CCC/C=C/C2CC(O)CC2C(O)/C=C/C(=O)O1 (configuration not stated)
  A: 2.3%	B: ?	C: 20%	D: 10

CN(C)C(=O)Oc1ccc2c(=O)c(Oc3ccccc3Br)coc2c1
  A: 1.5%	B: 0%	C: -16%	D: /

COC(=O)C1CN(C#N)N(c2ccc(Cl)cc2)C12c1ccccc1-c1ccccc12 (configuration not stated)
  A: -0.4%	B: ?	C: 4%	D: -8

COc1ccc(C)cc1NC1=NC(C)(C)CS1
  A: -1.6%	B: -1%	C: 27%	D: 5

CCC(=NCc1cccnc1)c1c(O)n(-c2ccc(C)cc2)c(=O)[nH]c1=O
  A: 3.2%	B: 0%	C: -8%	D: 0

Cc1cccc(NC(=O)CSc2nnc([C@@H](N)Cc3c[nH]c4ccccc34)o2)c1C
  A: -0.9%	B: 2%	C: -13%	D: -4

CS(=O)(=O)c1ccc(C(=O)N2CCC(C(=O)O)(c3ccccc3)CC2)cc1
  A: -1.5%	B: 0%	C: 13%	D: /

N/C(=N\[N+](=O)[O-])N/N=C/c1ccc(O)cc1
  A: -1.1%	B: -16%	C: 1%	D: -3

COC(=O)c1cn(CCOc2ccccc2)c2ccccc12
  A: -2.3%	B: -47%	C: -9%	D: -4

CC(=O)Nc1ccccc1OC(=O)N(C)C
  A: -3.3%	B: -1%	C: 1%	D: -4

CS(=O)(=O)Nc1ccc(Cc2noc(-c3ccc4[nH]cc(CCN)c4c3)n2)cc1
  A: /	B: 2%	C: /	D: 7&-4

Nc1ccccc1N=Cc1c(O)n(CCC2=CCCCC2)c(=O)[nH]c1=O
  A: 4.2%	B: -54%	C: 22%	D: -4

CSc1ncc(Cl)c(C(=O)O)n1 (tested in a mixture with another compound)
  A: -0.2%	B: 1%	C: 0%	D: 10

Cc1ccc(-c2nc(N3CCOCC3)s[n+]2-c2ccccc2)cc1
  A: 0.6%	B: -65%	C: 2%	D: -6

COc1ccc(C(c2ccc(OC)cc2)C(Cl)(Cl)Cl)cc1
  A: 2.6%	B: /	C: -11%	D: -2

CCC(C)(C)n1nnnc1CN1CCC(n2c(C)nc3cc(C(F)(F)F)ccc32)CC1
  A: 0.2%	B: -1%	C: -9%	D: -7

CC(C(N)=O)N1CC(c2ccc(Cl)cc2)CC1=O (configuration not stated)
  A: -0.7%	B: -6%	C: 2%	D: 2

COc1ccc(Cn2c(O)c(/C=N/NC(=O)c3ccncc3)c(=O)[nH]c2=O)cc1
  A: ?	B: -3%	C: ?	D: -1

C/C=C1/C[C@@H](C)[C@](O)(CO)C(=O)OCC2=CCN3CC[C@@H](OC1=O)[C@@H]23
  A: -3.6%	B: /	C: 7%	D: /

O=C(Cc1ccccc1)NC(Oc1ccccc1Cl)C(Cl)(Cl)Cl (configuration not stated)
  A: 0.7%	B: -6%	C: -12%	D: 4

# Next results.
# Short forms: A = Rango-impB inh; B = miR-21 FLuc; C = Rango release inh; D = GLA inh pH 4.5
CCOC(=O)C(O)(c1ccc(N(C)C(=O)COc2ccccc2)cc1)C(F)(F)F (configuration not stated)
  A: 0.2%	B: /	C: 4%	D: /

Cc1cccc(NP(=O)(Oc2ccccc2)Oc2ccccc2)c1C
  A: -1.3%	B: 28%	C: -6%	D: /

O=C(CCn1c(=O)oc2ccccc21)N1CCC2(CC1)OCCO2
  A: 6.0%	B: -15%	C: 1%	D: -2

CN1C(=O)C(O)N=C(c2ccccc2)c2ccccc21 (configuration not stated)
  A: -1.6%	B: -1%	C: 10%	D: /

CCCC1(CCC)C(=O)NC(=NCc2ccccc2)NC1=O
  A: 0.9%	B: 10%	C: 4%	D: 16

O=C1Nc2ccccc2Sc2ccccc21
  A: -0.5%	B: -13%	C: 0%	D: -3

O=C1NC(=O)C(CCc2ccncc2)(CCc2ccncc2)C(=O)N1Cc1ccccc1
  A: 8.4%	B: 0%	C: -1%	D: -21

O=c1c2ccccc2nc(Cc2ccccc2)n1-c1ccc(O)cc1
  A: -1.6%	B: -26%	C: -8%	D: 2

CCOC(=O)C1(Cc2ccc(Cl)cc2)CCN(C(C)CCn2cccn2)CC1 (configuration not stated)
  A: 0.0%	B: 0%	C: -1%	D: 0

NCC1(CC(=O)O)CCCCC1
  A: /	B: -1%	C: /	D: -5&3&-1&1

CN(C(=O)Oc1cccc2cccnc12)c1ccccc1
  A: ?	B: -9%	C: -4%	D: -2

CCOc1c(Cl)cc(CNC(C)C(O)c2ccccc2)cc1OC (configuration not stated)
  A: 0.3%	B: 3%	C: -12%	D: 0

FC(F)(F)/C(=N\P(=S)(N1CCOCC1)N1CCOCC1)N1CCOCC1
  A: 2.9%	B: 1%	C: 11%	D: 5

CC12CN3CC(c4ccccc4)(CN(C1)C31CCCCC1)C2=O
  A: 0.0%	B: 0%	C: -3%	D: 4

O=C(N/N=C/c1c(O)n(Cc2ccc(F)cc2)c(=O)[nH]c1=O)c1ccccc1O
  A: -3.0%	B: -4%	C: -12%	D: -3

CN1C(=O)C(=Cc2ccc(SC3CCCCC3)o2)C(=O)N(C)C1=O
  A: 2.5%	B: -3%	C: 17%	D: 1

CC(NS(C)(=O)=O)c1nnc2n1-c1ccc(Br)cc1C(c1ccccc1Cl)=NC2 (configuration not stated)
  A: 1.3%	B: /	C: -4%	D: /

C=C1[C@@H](OC(C)=O)[C@]23C[C@@H]1[C@@H](OC(C)=O)CC2[C@]12C4C[C@H]3[C@H]1N(CC)C[C@]4(C)CC[C@@H]2O (some centres not stated)
  A: -0.3%	B: /	C: -3%	D: /

CC1=NN(c2ccccc2)C(=O)C1/C=C1/C(=O)NC(=O)N(c2cc(C)cc(C)c2)C1=O (configuration not stated)
  A: 2.9%	B: -2%	C: 2%	D: -3

C=CCOC(=O)C1=C(C)OC(N)=C(C(=O)OCC)C12C(=O)N(CC(N)=O)c1ccccc12 (configuration not stated)
  A: 7.3%	B: -1%	C: -2%	D: -6

O=C(Nc1c(F)cc(F)cc1F)c1cccn(Cc2ccccc2)c1=O
  A: 0.9%	B: -17%	C: -21%	D: 0

CCCNS(=O)(=O)c1ccc(OCC(=O)N2CCN(Cc3ccc4c(c3)OCO4)CC2)c(C)c1
  A: 0.1%	B: /	C: -19%	D: /

# Screening data as filed in PubChem BioAssay.

# This is a subset, so the mix of outcomes need not match the whole.
